Vif A3G: inhibitors of Vif binding to APOBEC3G peptide, primary screen, biochemical, TR-FRET, GST-Vif 1-94, biotin-A3G peptide, dose response retest (AID 1117319); 260,000 compounds, 0.57% hits; TR-FRET GST-Vif / biotin-A3G peptide binding; higher % means a stronger effect; test concentration not given here; strong numbers were not always called active; inhibition, %; hits with a dose series show IC50 in µM;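 active means above the screen mean plus three standard deviations and confirmed in dose response; inconclusive means results disagree or hit not tested in dose response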;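 further: Vif residues 1-94 fused to GST binding biotinylated APOBEC3G peptide 110-148; 0% = full assay without inhibitor and 100% = GST in place of GST-Vif; retest series ran down from 100 µM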
T cruzi repl: T. cruzi replication inhibition; 300,000 compounds, 1.4% hits; AID 1885; T. cruzi beta-gal in NIH3T3, luminescence, 90 h; inhibition, % (test concentration not listed);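 active means mean inhibition across valid replicates above about 55%, limit read from the data; inconclusive means mean below that limit but half or more replicates reach it; inactive means mean below it, under half of replicates reach it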;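 further: signal also drops with host cell toxicity which is not excluded here; 0% = plate median of DMSO wells and 100% = zero luminescence signal; higher percent means less beta-gal luminescence so fewer parasites; stock transfer was 50 nL into about 50 µL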
MLL AF4-AF9 inh: blocks AF4 peptide binding to human AF9 | inhibition, % at 10 µM | 350,000 compounds, 0.47% hits | AID 651704 | AlphaScreen, biotin-AF4 peptide binding to FLAG-AF9 | P42568;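 active means every replicate reaching a set inhibition limit, whatever the replicate mean, cut at about 25% in these data; inconclusive means mean inhibition reaches that limit but some replicates miss it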;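 further: 0% = plate neutral control median and 100% = total signal loss; the record names both 10 and 1 µM as test concentration; the first replicate is given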
Calb FLC: C. albicans growth modulation with fluconazole | C. albicans CaCi-2 (fluconazole-resistant clinical isolate) + fluconazole, Alamar Blue growth, 48 h | growth inhibition, % (test concentration not listed) | 300,000 compounds, 0.57% hits | AID 1979;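 active means most replicates above 75%; inconclusive means exactly half above 75%; inactive means most below 75%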;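 further: all wells also contain fluconazole at 8 µg/ml as a sub-toxic cotreatment; 0% = median of DMSO wells and 100% = median of geldanamycin control wells; wells of about 8 µL received 7.5 nL stock; the first replicate is given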
LANA-H2B inh: blocks KSHV LANA binding to histone H2A/H2B | cell-free LANA-H2A/H2B peptide, fluorescence polarization | inhibition, % (concentration not given with the values) | 320,000 compounds, 0.6% hits; in the data active means inhibition mostly above about 10%, no sharp cut-off; inactive means mostly below about 6.7%;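 further: stock transfer was 7.5 nL into about 10 µL; 0% = median of vehicle wells and 100% = median of positive control wells; one replicate is shown; the record names a cut of 25% in any replicate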
Target sequence (Q9QR71 whole entry, looked up): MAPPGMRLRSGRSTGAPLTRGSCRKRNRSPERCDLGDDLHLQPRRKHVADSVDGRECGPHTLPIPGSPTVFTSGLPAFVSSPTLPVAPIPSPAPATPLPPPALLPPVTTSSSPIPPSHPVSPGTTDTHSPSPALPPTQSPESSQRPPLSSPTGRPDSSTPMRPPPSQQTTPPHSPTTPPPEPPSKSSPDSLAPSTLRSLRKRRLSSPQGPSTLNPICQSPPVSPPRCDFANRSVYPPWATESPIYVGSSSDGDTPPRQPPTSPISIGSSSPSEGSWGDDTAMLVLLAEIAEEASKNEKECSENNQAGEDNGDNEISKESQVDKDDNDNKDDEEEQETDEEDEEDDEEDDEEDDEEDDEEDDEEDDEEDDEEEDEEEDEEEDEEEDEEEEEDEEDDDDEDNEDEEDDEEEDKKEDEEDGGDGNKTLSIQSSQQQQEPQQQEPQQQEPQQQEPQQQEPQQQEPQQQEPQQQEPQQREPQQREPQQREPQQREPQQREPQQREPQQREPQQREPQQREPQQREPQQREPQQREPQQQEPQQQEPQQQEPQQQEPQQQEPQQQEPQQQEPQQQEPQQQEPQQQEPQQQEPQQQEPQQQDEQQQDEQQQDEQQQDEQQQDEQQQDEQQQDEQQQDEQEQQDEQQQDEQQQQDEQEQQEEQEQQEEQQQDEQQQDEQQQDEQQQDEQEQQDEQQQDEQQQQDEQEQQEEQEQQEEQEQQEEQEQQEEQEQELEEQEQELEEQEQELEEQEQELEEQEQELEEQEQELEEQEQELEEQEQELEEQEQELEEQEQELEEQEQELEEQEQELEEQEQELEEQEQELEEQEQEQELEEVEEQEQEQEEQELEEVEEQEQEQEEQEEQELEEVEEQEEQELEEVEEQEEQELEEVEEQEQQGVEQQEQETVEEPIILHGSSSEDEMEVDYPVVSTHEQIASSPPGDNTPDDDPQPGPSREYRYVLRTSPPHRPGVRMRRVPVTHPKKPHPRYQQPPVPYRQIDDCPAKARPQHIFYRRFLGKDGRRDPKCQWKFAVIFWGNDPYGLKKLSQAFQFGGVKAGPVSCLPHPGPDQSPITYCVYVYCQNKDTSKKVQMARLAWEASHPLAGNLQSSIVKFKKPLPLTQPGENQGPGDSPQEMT
Beta apoptosis: beta cell apoptosis inhibition; INS-1E cytokine-induced death, ATP luminescence, 48 h; percent of positive-control rescue, neutral wells zero; protection from apoptosis, % (test concentration not listed); 300,000 compounds, 0.8% hits;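 active means all replicates at 75% or more, or half of them and the mean; inconclusive means half reach 75% but not the mean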;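 further: 0% = cytokine-treated negative control wells and 100% = positive control rescue; higher means more ATP so stronger rescue from cytokine killing; wells of about 40 µL received 100 nL stock; the first replicate is given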
Bfl-1 A1 inh: inhibitors of the anti-apoptotic protein A1, read as caspase activation. MEF A1-2A-BIM cells, Caspase-Glo 3/7 luminescence, 3 h; percent of clofoctol response, vehicle zero. caspase activation, % (concentration not given with the values). 330,000 compounds, 0.066% hits. AID 2462;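 active means over half of replicate activation scores above 10%, or exactly half above 10 with the replicate mean above 10; inconclusive means replicate mean below 10 yet half the replicates above 10; inactive means over half of replicates below 10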;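 further: wells of about 30 µL received 50 nL stock; many hits fall short of the cut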
RanGTP-Impb inh: inhibitors of RanGTP-importin-beta interaction, primary screen, biochemical, FRET, CFP-Ran, YFP-importin-beta, homogeneous. cell-free CFP-Ran/YFP-importin-beta FRET ratio. inhibition, % (concentration not given with the values). 300,000 compounds, 1.1% hits;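 active means most replicates above 15%; inconclusive means exactly half above 15%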;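 further: 0% = DMSO wells and 100% = Ran loaded with GDP instead of GTP; wells of about 40 µL received 100 nL stock; the first replicate is given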
Active calls of the source: *; ? = inconclusive; . = no result given; & = joins results of further samples. Not a hit list. Share with any hit: about 4.3%.

SMILES | Vif A3G | T cruzi repl | MLL AF4-AF9 inh | Calb FLC | LANA-H2B inh | Beta apoptosis | Bfl-1 A1 inh | RanGTP-Impb inh
CC(=O)N[C@@H](Cc1c[nH]c2ccccc12)C(=O)OCC(=O)Nc1ccc(S(=O)(=O)N(C)C)cc1 | -7% | -16 | 2.4 | -12 | 3.1 | -8 | 0.4 | 2.6
COc1cc(/C=N/NC(=O)C2COc3ccccc3O2)ccc1O (stereo not drawn) | -13% | 25 | 4.5 | 9 | -0.4 | -1 | -0.8 | -1.8
CC(=O)NCCc1nc2ccccc2n1CCOc1cccc(C)c1 | ? | 3 | 5.5 | 3 | 1.3 | -2 | 0.0 | -6.8
CN1C(=O)C(=O)N(CC(=O)Nc2ccccc2OC(F)F)C1=O | -6% | . | 0.0 | . | 3.8 | -2 | 0.6 | .
O=C1C2CC=CCC2C(=O)N1c1n[nH]c(CCc2ccccc2)n1 (stereo not drawn) | 21% | 4 | . | -6 | 0.2 | -5 | 0.4 | 3.7
O=S(=O)(c1ccccc1)n1ccc(-c2cnc(-c3ccccc3)s2)n1 | 5% | 16 | . | -6 | 9.6 | 3 | -0.9 | -2.4
COc1cccc(NC(=O)CCP(C)(=O)O)c1 | -3% | -14 | . | -6 | -3.7 | -3 | 1.4 | 2.1
CCS(=O)(=O)c1nc(S(=O)(=O)c2ccc(C)cc2)c(N2CC(C)OC(C)C2)s1 (stereo not drawn) | . | 13 | -1.6 | -6 | -0.7 | 0 | -0.3 | -2.7
O=C(NC1CCCCC1)C(=O)c1c(-c2ccccc2)[nH]c2ccccc12 | -1% | 10 | 0.1 | -9 | -7.8 | -8 | . | ?
COc1c2ccccc2nc2ccccc12 | . | 6 | -3.8 | -10 | 2.6 | 2 | 0.0 | 41*
CC(C)C(NC(=O)c1ccccc1NC(=O)c1ccco1)C(=O)O (stereo not drawn) | -1% | -3 | . | -3 | -0.8 | 1 | 0.1 | 0.7
CCN(CC)CCCNC(=O)c1cn(CC)c2ccc(S(=O)(=O)N(C)C3CCCCC3)cc2c1=O | . | 16 | 0.4 | -2 | 5.2 | -7 | -0.6 | ?
c1ccc(CN2CCN(c3nc(NCc4ccco4)c4ccccc4n3)CC2)cc1 | 15% | 36 | . | -9 | -7.5 | 14 | -0.7 | 3.6
CCOc1cc(N2CCOCC2)c(OCC)cc1NC(=O)c1nn(CC)c(=O)c2ccccc12 | . | . | 16 | . | 6.2 | 36 | -1.5 | .
O=C(O)Cc1csc(-c2cccc(Oc3ccccc3)c2)n1 | -7%&3% | -10&-19 | -5.4&0.0 | 19&43 | 4.2&-3.8 | -3&1 | 0.0&0.2 | 0.4&3.1
CCN(CCO)Cc1csc2ccccc12 | . | -11 | -0.6 | -11 | 0.2 | -2 | 0.6 | -4.5
CC(C)(C)OC(=O)C[C@@H]1C/C=C\C[C@@H](CC(=O)N(CCO)Cc2ccccc2)C(=O)NC[C@@H](c2ccccc2)OC1=O | . | . | -1.4 | . | 4.7 | 2 | -0.6 | .
O=C(O)C1CC(O)CN1C(=S)Nc1ccccc1 (stereo not drawn) | -4% | 2 | -1.6 | -6 | -4.9 | -7 | 0.2 | -0.8
COc1ccc(CN=Nc2cc(C)nc(NS(=O)(=O)c3ccccc3Cl)n2)cc1 | -7% | -4 | -3.0 | 6 | -4.9 | -5 | 0.0 | -2.8
CC1(C)CC(=O)C2=C(C1)OC(c1cccs1)C(C#N)=C2N (stereo not drawn) | 0% | -8 | 4.7 | 6 | -2.2 | . | -0.2 | 2.4
CN1C(=O)/C(=C/c2ccc(OCc3ccccc3F)cc2)N(C)C1=S | . | 5 | -16 | 5 | 3.3 | 2 | -0.3 | -3.5
N#CCSc1nnc(-c2ccccc2O)n1CCc1ccccc1 | 5% | 0 | . | -2 | 1.7 | -1 | -0.4 | -0.2
COc1ccccc1C(=O)NC(CCSC)C(=O)NNC(=O)c1ccccc1O (stereo not drawn) | 22% | . | 1.5 | . | -6.5 | 7 | 0.1 | .
Cc1cc(C)c(C#N)c(SCC(=O)c2ccccc2)n1 | . | ? | 1.2 | -55 | 5.3 | 5 | 0.6 | -0.7
O=C(CSc1nc2ccc(NC(=O)c3ccccc3C(=O)O)cc2s1)Nc1c(Cl)cccc1Cl | . | 8 | 0.7 | -24 | 2.1 | 2 | -0.1 | ?

Going on with the list:
SMILES | Vif A3G | T cruzi repl | MLL AF4-AF9 inh | Calb FLC | LANA-H2B inh | Beta apoptosis | Bfl-1 A1 inh | RanGTP-Impb inh
COc1ccc(NC(=O)NCCCCc2ccccc2)cc1 | -6% | . | -1.4 | -23 | -4.3 | -1 | -1.7 | .
CCOC(=O)C1(CCc2ccccc2)CCN(Cc2cnc(N(C)C)s2)CC1 | -2% | 44 | 7.4 | -44 | -6.6 | 4 | 0.3 | 1.0
Clc1ccc(Cl)c2sc(N3CCCC3)nc12 | -8% | 31 | . | -3 | 3.0 | -4 | -0.9 | -0.6
COc1cccc(N2CCN(C(=O)c3cccnc3)CC2)c1 | 5% | -4 | -9.5 | 5 | 1.4 | -4 | 0.7 | -4.7
COc1nc(NCCO)nc(Nc2cc(Cl)ccc2OC)n1 | . | -9 | -1.8 | 4 | 2.3 | -4 | 0.5 | -0.9
c1ccc2c(c1)C(=NC1CCCCC1)NC2=NC1CCCCC1 | 2% | 55* | . | 2 | 4.9 | 56 | -0.6 | -2.6
Cc1ccc2cc(CN(CC3CCCO3)C(=O)NC3CCCCC3)c(=O)[nH]c2c1C (stereo not drawn) | ? | 14 | . | ? | -0.2 | -3 | 0.9 | -0.5
Cc1cccc(C(=O)NCCc2csc(C)n2)c1 | -1% | -11 | -2.3 | -5 | 0.0 | -7 | -1.5 | 1.5
CCC(=O)NC(c1cccs1)c1cc([N+](=O)[O-])c2cccnc2c1O (stereo not drawn) | . | -3 | 10 | 86* | 5.0 | 58 | 0.0 | -1.5
CCCn1c(C)cc(/C=C(\C#N)C(=O)OCC(=O)NC(=O)NCC)c1C | 5% | 15 | . | -12 | . | 7 | 0.0 | -0.7
CCCCOCCCN1CC(=O)N2C(C)c3[nH]c4ccccc4c3C[C@H]2C1=O (stereo partly drawn) | -8% | 22 | -0.2 | -6 | 0.5 | -5 | 0.7 | 3.0
C/C(=N/NC(=O)c1sc(NS(=O)(=O)c2ccc(C)cc2)nc1C)c1sc(N)nc1C | 15% | -11 | -3.6 | 4 | 5.6 | -6 | 0.0 | .
O=C(c1ccccc1)c1ccc2c(c1)OCCOCCOCCO2 | -1% | -11 | . | 10 | -0.8 | -5 | 0.2 | -2.9
Cc1ccc(OCC(=O)N/N=C\c2c(C)n(C)c3ccccc23)c([N+](=O)[O-])c1 | 5% | 27 | . | 1 | -3.1 | -10 | -0.8 | 3.8
CC(C)(C)c1cc(CNC2CS(=O)(=O)C[C@@H]2O)cc(C(C)(C)C)c1O (stereo partly drawn) | 0% | -9 | . | -1 | 3.7 | -7 | 0.7 | -4.6
CCOc1ccc(CN(C)CC(=O)Nc2cccc(S(=O)(=O)N(C)c3ccccc3)c2)cc1 | -3% | 73* | -1.1 | 14 | -6.1 | -1 | 0.3 | 0.6
COC(=O)c1ccc2c(c1)NC(=O)C(N1CCCCC1)S2 (stereo not drawn) | -1% | -12 | . | 4 | 2.9 | -2 | 0.6 | 0.0
CCOC(=O)c1cc(-c2csc(Nc3ccccc3Cl)n2)on1 | -7% | . | -0.4 | -6 | -5.0 | . | -1.5 | -1.7
COC(=O)c1c(C(=O)OC)c(-c2ccc(F)cc2)n2c1CS(=O)C2 (stereo not drawn) | -6% | -6 | -0.8 | 3 | 1.3 | -1 | -1.0 | -2.7
CCOc1ccccc1/C=N/NC(=O)c1cccc(S(=O)(=O)N2CCOCC2)c1 | 23% | -16 | 1.4 | -7 | 8.4 | -5 | -0.4 | -1.7
NC(=O)NS(=O)(=O)Oc1ccccc1 | . | -9 | -15 | 2 | 2.4 | -5 | ? | -1.1
CC1CCc2cc(F)ccc2N1C(=O)CN1C(=O)c2ccccc2C1=O (stereo not drawn) | 20% | -3 | . | 0 | 8.0 | -4 | -0.1 | 0.6
Cc1cc(C)c2c(=O)n(-c3ccccc3)[nH]c2n1 | 2% | -3 | . | 3 | -4.4 | 1 | -0.7 | 0.6
Cn1nc(C(=O)Nc2ccc(S(=O)(=O)NCc3ccco3)cc2)c2ccccc2c1=O | . | 13 | . | -2 | -7.6 | 1 | -0.1 | -1.9
O=C(CSC(=S)N1CCCC1)NCC(=O)Nc1ccccc1Br | . | -2 | -0.3 | 3 | -0.5 | 1 | 0.8 | 0.2

(cont.)
SMILES | Vif A3G | T cruzi repl | MLL AF4-AF9 inh | Calb FLC | LANA-H2B inh | Beta apoptosis | Bfl-1 A1 inh | RanGTP-Impb inh
CCOC(=O)C1CCN(S(=O)(=O)c2ccc3c(c2)NC(=O)CS3)CC1 | -6% | -1 | -1.5 | -9 | 6.0 | 2 | -0.1 | -0.3
O=C(Nc1cc(C(F)(F)F)ccc1N1CCOCC1)c1cccs1 | -10% | -2 | . | 0 | 2.2 | -2 | 1.2 | -2.6
Oc1ccc(N2CCN(CC(O)c3ccccc3)CC2)cc1 (stereo not drawn) | . | -10 | -8.7 | -1 | -5.9 | -3 | 0.1 | ?
O=C(CSc1ccc(Cl)cc1)NC1CCCC1 | -4% | 1 | . | 2 | 8.5 | -4 | 0.5 | ?
COc1cc(/C=C2\SC(=S)N(CCC(=O)NC3CCCC3)C2=O)cc(OC)c1OC | 2% | 30 | -5.2 | 66 | -0.1 | -7 | 0.4 | -3.3
CCOC(=O)c1cc2ccc(OC)cc2oc1=O | -11% | -9 | . | 4 | 8.4 | 4 | -2.5 | 4.2
COC(=O)C1(C)NC(c2ccccc2C)C2C(=O)N(c3ccccc3)C(=O)C21 (stereo not drawn) | . | 7 | -4.1 | 0 | 4.2 | -4 | 0.1 | 1.2
Cc1ccc(C23CC4CC(CC(NC(=O)NC(C)(C)CO)(C4)C2)C3)cc1 | -4% | 19 | . | 6 | 0.6 | . | 0.7 | -1.4
COC(=O)/C(=C\Nc1ccc(Cl)cc1Cl)NC(=O)c1ccccc1 | 22% | 1 | . | 4 | 0.5 | -1 | -0.5 | -2.6
CCCC(c1nnnn1C1CCCCC1)N1CCN(c2ncccn2)CC1 (stereo not drawn) | 0% | -6 | . | -19 | -2.0 | 3 | -1.0 | -0.5

Shown as labelled records: part of the list above
smiles: COC(=O)C1(C)NC(c2ccccc2C)C2C(=O)N(c3ccccc3)C(=O)C21 (stereo not drawn)
  Vif A3G: .
  T cruzi repl: 7
  MLL AF4-AF9 inh: -4.1
  Calb FLC: 0
  LANA-H2B inh: 4.2
  Beta apoptosis: -4
  Bfl-1 A1 inh: 0.1
  RanGTP-Impb inh: 1.2

smiles: Cc1ccc(C23CC4CC(CC(NC(=O)NC(C)(C)CO)(C4)C2)C3)cc1
  Vif A3G: -4%
  T cruzi repl: 19
  MLL AF4-AF9 inh: .
  Calb FLC: 6
  LANA-H2B inh: 0.6
  Beta apoptosis: .
  Bfl-1 A1 inh: 0.7
  RanGTP-Impb inh: -1.4

Screens from PubChem BioAssay.
